Vaccinia Venus: qHTS for Stage-Specific Inhibitors of Vaccinia Orthopoxvirus: Venus Reporter Primary qHTS; Vaccinia virus Venus reporter expression, fluorescence; Potency, µM (titrated, usually from 36.5 µM), inactives show top-dose activity change, negative = inhibition, most hits filed as inhibitors; hit rate 0.46% among 330,000; active means well fitted inhibition curve with a large enough effect; inconclusive means small, poorly fitted or top-dose-only effect; inactive means no such curve, though single readings can be large or run the other way; tested in A549 cells; also: nearly all actives have a fitted effect of over 30% in size; inactives centre near -10
VACV mCherry inh: qHTS for Stage-Specific Inhibitors of Vaccinia Orthopoxvirus: mCherry Reporter Primary qHTS; Vaccinia virus mCherry reporter infection, fluorescence; about a quarter of the inactives have no number; Potency, µM (highest dose often 36.5 µM), without a hit: top-dose activity change, negative = inhibition, most hits filed as inhibitors; hit rate 0.63% among 310,000; active = well fitted inhibition curve with a large enough effect; inconclusive = small, poorly fitted or top-dose-only effect; inactive = no such curve, though single readings can be large or run the other way; tested in A549 cells; also: nearly all actives have a fitted effect of over 35% in size; inactives centre near -10
Starred values were filed as active, the others as inactive; i = inactive; ? = inconclusive; . = not tested or not shown; & = joins results of further samples; [ ] = remark or other dose. % is scaled to controls: 0 for no effect and ±100 for the full control effect; potency is read from the fitted curve at half-maximal effect. No enrichment for hits; overall some 0.87% were active at least once.

canonical_smiles,Vaccinia Venus,VACV mCherry inh
Cc1ccc(C)c(NC(=O)CSc2sc3c(O)cc(=O)[nH]c3c2C#N)c1,5%,-17%
C=C[C@H]1CN2CC[C@H]1C[C@H]2[C@H](O)c1ccnc2ccccc12,-8%,-5%
NS(=O)(=O)c1cccc(Nc2nc3ccccc3nc2NS(=O)(=O)c2ccc(Cl)cc2)c1,4%,i
Cc1ccc(-c2nc(C#N)c(NCc3cccc4c3OCO4)o2)cc1,-11%,-11%
COc1ccc(C(=O)c2c[nH]c3ccccc23)cc1,-25%,.
COc1ccccc1C(CC(=O)N1CCCC1)c1ccc2c(c1)OCO2 (stereo not given),-11%,-11%
Nc1cc(N)cc(C(=O)OCC(=O)Nc2cc(S(=O)(=O)N3CCCCC3)ccc2Cl)c1,8%,-4%
CC(=O)c1cc(OC(=O)N2CCOCC2)ccc1OC(=O)N1CCOCC1,-5%,-6%
O=C(NC(=S)Nc1ccc(F)c(Cl)c1)C1CC1,-11%,i
COc1ccc(-n2c(/C=C/c3cccc4ccccc34)nc3ccccc3c2=O)cc1Cl,-26%,-24%
Cc1ccc(Cn2nnnc2CN2CCC(NC(=O)C(C)(C)C)CC2)cc1,-10%,-8%
COc1ccccc1NC(=O)C1=C(C)Nc2nc(-c3cccs3)nn2C1c1cccnc1 (stereo not given),3%,-1%
Cc1cc(C)c2c(NC(=O)c3ccccc3)c(C(=O)Nc3ccc(F)cc3)sc2n1,-9%,-12%
CN1C(=O)CC(c2ccccc2)Nc2ccccc21 (stereo not given),-11%,-6%
COc1cccc(-c2cc(C(F)(F)F)c(C#N)c(=O)[nH]2)c1,3%,-1%
CN(CC(=O)Nc1cccc(F)c1)C(=O)CNS(=O)(=O)c1ccc(N(C)C)c([N+](=O)[O-])c1,-11%,-3%
Cc1cccc(N2CCN(Cc3oc(CO)cc(=O)c3O)CC2)c1C,-14%,-15%
CC1C/C(=N/N=C2/NC(=O)CS2)CC(C)(C)C1 (stereo not given),-1%,.
COc1ccc(CNC(=O)COC(=O)c2cc(S(=O)(=O)N3CCOCC3)ccc2O)cc1OC,0%,-15%
CCOc1cc(/C=C/C(=O)c2ccc3c(c2)OCCO3)ccc1OCC(=O)N(C)C,10µM*,10µM*
CN1C(=S)SC(/[N+]([O-])=C/c2ccc(Cl)cc2)C1(C)C (stereo not given),-13%,-23%
CC12CCC(=O)N1C(C(=O)OCC(=O)Nc1cccc(S(=O)(=O)N3CCCCCC3)c1)CS2 (stereo not given),-3%,i
COc1ccc(/C=N/N=C2/NC(=O)C(CC(=O)NC(C)C)S2)cc1 (stereo not given),-10%,-18%
CC(OC(=O)Cn1cnc2c1c(=O)n(C)c(=O)n2C)C(=O)N(C)c1ccccc1 (stereo not given),?,?
CCCCC(=O)N1C(C)CCC1C (stereo not given),-13%,?
Cc1oc(-c2ccc(C(=O)NCc3ccc(Cl)cc3)cc2)nc1CS(=O)(=O)c1ccccc1,-29%,-5%
CC(=O)C1CCC2C3CCC4CC(=O)CCC4(C)C3C(O)CC12C (stereo not given),-12%,-21%
Cc1ccc(-c2nn3c(=O)cc(CN4CCN(C(=O)c5ccc(C(C)(C)C)cc5)CC4)nc3s2)cc1,-7%,-13%
CC1=C(C(=O)N2CCOCC2)CC(CC(=O)NC2CCCC2)C(=O)N1Cc1ccc(C(C)(C)C)cc1 (stereo not given),-28%,-24%
Cc1ccc(Cn2nc(C)c(C(=O)NCC(c3cccs3)N3CCOCC3)c2Cl)cc1 (stereo not given),-14%,i

Reprinted at random: 3 compounds from above, in no set order.
canonical_smiles,Vaccinia Venus,VACV mCherry inh
CN(CC(=O)Nc1cccc(F)c1)C(=O)CNS(=O)(=O)c1ccc(N(C)C)c([N+](=O)[O-])c1,-11%,-3%
CN1C(=O)CC(c2ccccc2)Nc2ccccc21 (stereo not given),-11%,-6%
CC(=O)C1CCC2C3CCC4CC(=O)CCC4(C)C3C(O)CC12C (stereo not given),-12%,-21%

(next part)
canonical_smiles,Vaccinia Venus,VACV mCherry inh
CC(C)C[C@@H](CN1CCC[C@H]1CN1C(=O)C(=O)NC[C@@H]1Cc1ccccc1)N1C[C@H](Cc2ccc(O)cc2)N(CC2CCCCCC2)C(=O)C1=O,?,?
Clc1ccccc1Cc1cn2cc(-c3ccccc3)nc2s1,-6%,-15%
CCCCNC(=O)/C=C1\Sc2ccccc2NC1=O,-15%,-1%
O=[N+]([O-])c1ccc(O)c(/C=N/n2cnnc2)c1,2%,-7%
Cc1ccc(NC(=O)N2CCC(CN3CCC(C)CC3)CC2)cc1F,-7%,-10%
O=C(c1ccccc1Cl)N1CCN(S(=O)(=O)N2CCCCC2)CC1,-6%,-9%
O=S(=O)(NCCc1ccccc1)c1ccc(Br)s1,?,-4%
Cc1ccc(S(=O)(=O)N2C[C@H]3[C@H]4C(=O)N(c5ccccc5)C(=O)[C@H]4C[C@H](OC(=O)NC4CCCC4)[C@@]3(O)C2)cc1,-4%,i
Cc1cc(N2CCN(C(=O)Oc3ccc([N+](=O)[O-])cc3)CC2)c2ccccc2n1,-20%,5%
CCS(=O)(=O)NCC(c1cccnc1)N1CCN(c2ccccc2OC)CC1 (stereo not given),10%,-11%
O=C(O)CCN1c2cccc3cccc(c23)S1(=O)=O,-1%,-14%
COCC(=O)N(C)C[C@H]1Oc2ncc(C#C[C@H](C)O)cc2C(=O)N([C@@H](C)CO)C[C@H]1C,-23%,-17%
CCC(=O)N1CCN(c2c(Cl)cccc2[N+](=O)[O-])CC1,0%,.
COc1ccc(C(=O)NCc2ccc(N3CCN(C)CC3)cc2)cc1,-7%,-9%
COc1cc(CNc2ccc(C(=O)O)cc2)cc(Br)c1OCC(=O)NC(C)(C)C,-11%,-12%
COc1ccc(-c2noc(CNS(=O)(=O)c3ccc(Br)cc3)n2)cc1OC,-8%,-14%
O=C(CSc1nnc(-c2cc3ccccc3cc2O)n1Cc1ccco1)N1CCc2ccccc2C1,?,-6%
COC(=O)c1c(C)sc(-c2c(-c3ccc(OC)c(F)c3)[nH]c3c2c(=O)n(C)c(=O)n3C)c1O,2%,1%
COC(=O)CSc1nnc(-c2cccnc2)o1,-4%,2%
CN1CCN(c2nc(-c3ccccc3)nc(-c3ccccc3)c2C#N)CC1,-3%,-15%
CCn1c(C(=O)N2CCC(C(=O)NCCc3ccccc3)CC2)cc2sccc21,-2%,-14%
CCC1(c2ccccc2)ON(c2c(Br)cccc2Br)C1=O (stereo not given),?,?
Cc1cc(/C=N/NC(=O)c2cccc([N+](=O)[O-])c2)c(C)n1-c1ccccc1,-22%,-24%
C[N+]1(C)C2CC(OC(=O)[C@H](CO)c3ccccc3)CC1C1OC12 (stereo not given in full),-17%&-18%,-2%
CSc1ccccc1NC(=O)CN(C)CC(=O)NCC(=O)Nc1ccc(F)cc1,-17%,i
O=C(COc1ccc(S(=O)(=O)N2CCOCC2)cc1Cl)NCc1ccco1,-10%,-19%
O=C(CCc1ccccc1)NCCSc1ccccc1,-8%,i
CC[C@]12c3[nH]c4cc(-c5ccco5)ccc4c3CCN1C(=O)[C@@H](CC(=O)NCCCN(C)C)C[C@@H]2C(=O)N1CCN(C(=O)C2CC2)CC1,4%,i
COc1cc([N+](=O)[O-])ccc1NC(=O)c1cccc(NC(=O)C(C)C)c1,-17%,i
CCOC(=O)c1ccc(NC(=S)NNC(=O)COC)cc1,-10%,-5%
CN(C)/C=C1\NC(=S)N(c2ccccc2)C1=O,2%,?
CC(OC(=O)CNC(=O)c1sc2ccccc2c1Cl)C(=O)NC1(C#N)CCCCC1 (stereo not given),-11%,-15%
Cc1cc(C)cc(NC(=O)Cn2c(=O)oc3cc(S(=O)(=O)N4CCC(C)CC4)ccc32)c1,?,?
O=C(Nc1ccc(Oc2ccccc2)cc1)C1CCN(S(=O)(=O)c2ccccc2)CC1,?,?
Cc1ccc(S(=O)(=O)NC(=O)C2(C)CCN2C(=O)c2c(C)noc2C)cc1 (stereo not given),8%,55%[activator]
O=C(CCN1C(=O)/C(=C/c2cccc(Br)c2)SC1=S)Nc1cccnc1,?,?
COc1cccc(CC(NC(C)=O)C(=O)NC2CCN(c3c(Cc4ccccc4)c(C)nc4ncnn34)CC2)c1OC (stereo not given),4%,-10%
COc1cccc(CNC(=O)C(=O)NCC(c2cccs2)S(=O)(=O)c2ccccc2)c1 (stereo not given),3%,-20%
CCCN1CCC(=O)N(CCSc2ccc(OC)cc2)CC1,-19%,-26%
COc1cc(/C=N/NC(=O)c2ccncc2)ccc1OC(=O)c1ccc([N+](=O)[O-])cc1,-12%,-25%
COc1ccccc1NC(=O)CSc1ccc(-c2cccs2)nn1,-12%,-20%
CC(C)OC(=O)CSc1nnc(-c2ccc([N+](=O)[O-])cc2)o1,-8%,i
COc1ccc(NC(=O)C2CCCN2C(=O)Nc2ccc(OC)cc2)cc1 (stereo not given),4%,8%
COCCNC(=O)c1onc(CSc2cc(C)ccc2C)c1C(=O)O,-3%,-25%
COc1cc(/C=C/C(=O)O)cc(Br)c1O,-7%,i
Cc1ccccc1-n1c(=O)[nH]c(=O)c2c(N)c(C(=O)c3ccc(Cl)cc3)sc21,-17%,-11%
CN(CC(=O)NCCc1ccc(Cl)cc1)S(=O)(=O)c1ccc2c(c1)c(=O)n(C)c(=O)n2C,-24%,-4%
CN(C)S(=O)(=O)c1ccc(C(=O)NCCN=C2NS(=O)(=O)c3ccccc32)cc1,-8%,i
O=C(O)C(Cc1ccnc2ccccc12)=NO,-1%,i
Cc1ccc(Cl)c(OCC(=O)NN2CCN(C)CC2)c1,-8%,-13%
CCOc1ccc(CNC(=O)c2ccc3c(c2)c(C)c(C)n3C)cc1,-11%,-16%
Cc1ccc(CNC(=O)CCC(=O)Nc2nnc(C3CCCCC3)s2)cc1,-7%,i
Cc1csc2c(NCCCN3CCOCC3)ncnc12,-5%,-10%
O=C1c2ccccc2C(=O)N1CCSc1ncn[nH]1,-5%,-9%
COC(=O)c1sc2cnccc2c1N,-18%,-25%
Cc1cccc(NC(=O)c2ccc3c(=O)n4c(nc3c2)CCCCC4)n1,-11%,-20%
COc1ccc(CCC(=O)Nc2cccc(S(=O)(=O)N3CCOCC3)c2)cc1OC,-7%,-13%
Cc1cc2oc(C(=O)NCCc3ccc(S(N)(=O)=O)cc3)cc(=O)c2cc1C,-8%&-5%,0%&-14%
O=C(CCCn1c(=O)[nH]c2ccc(Br)cc2c1=O)NCc1ccc(Cl)cc1,15%,-15%
Cn1c(-c2ccccc2)c(C(=O)CCl)c2ccccc21,-22%,-27%

Looked up above:
`CC(OC(=O)CNC(=O)c1sc2ccccc2c1Cl)C(=O)NC1(C#N)CCCCC1` (stereo not given) in Vaccinia Venus shows -11%
`COc1cccc(CNC(=O)C(=O)NCC(c2cccs2)S(=O)(=O)c2ccccc2)c1` (stereo not given) in Vaccinia Venus shows 3%
`CCOc1ccc(CNC(=O)c2ccc3c(c2)c(C)c(C)n3C)cc1` in VACV mCherry inh shows -16%
`CCCN1CCC(=O)N(CCSc2ccc(OC)cc2)CC1` in Vaccinia Venus shows -19%
`O=C(CCCn1c(=O)[nH]c2ccc(Br)cc2c1=O)NCc1ccc(Cl)cc1` in VACV mCherry inh shows -15%
`Cc1cc2oc(C(=O)NCCc3ccc(S(N)(=O)=O)cc3)cc(=O)c2cc1C` in Vaccinia Venus shows -8%&-5%

Continuation:
canonical_smiles,Vaccinia Venus,VACV mCherry inh
Cn1nccc1-c1ccc(C(=O)Nc2cccc(NS(C)(=O)=O)c2)c2occc12,-15%,4%
CC(NC(=O)Cn1cnc2c1c(=O)n(C)c(=O)n2C)c1ccccc1 (stereo not given),-2%,i
CCCC(c1nnnn1CS(=O)(=O)c1ccc(C)cc1)N1CCN(c2ccccc2)CC1 (stereo not given),-23%,-6%
CC(C)CC(NC(=O)C1CCC(C)CC1)C(=O)Nc1ccccc1F (stereo not given),0%,5%
Cc1c(C(=O)NCc2cccnc2)oc2ccc(S(=O)(=O)N3CCCC(C)C3)cc12 (stereo not given),-29%,-29%
CCCc1c(-c2cccc(Cl)c2)ncn1Cc1ccccc1OC,-12%,-10%
O=C1c2ccccc2C(=O)N1CC1CCCO1 (stereo not given),-5%,.
O=C(NC1CCCCCC1)c1[nH]c(C(F)(F)F)nc1-c1ccccc1,-2%,-1%
Cc1ccc(NC(=O)c2ccc3ccccc3n2)cc1S(=O)(=O)N1CCOCC1,-11%,i
CCCCNc1cc(C(=O)O)cc(S(N)(=O)=O)c1Oc1ccccc1,-9%,-10%[60.7 µM]
CSc1nncc(-c2ccccc2)n1,-1%,i
Cc1ccc2c(c1)C(c1ccccc1)N(C(=O)c1cccc([N+](=O)[O-])c1)CC(=O)N2 (stereo not given),-8%,-13%
Cc1cc(-c2ccco2)n(CC(=O)NCCN(C)C)n1,-12%,i
Cc1ccc(-n2c(=O)c3cccnc3n2CC(=O)Nc2cc(C)cc(C)c2)cc1,7%,-8%
CCOC(=O)C1CCCN(C(=O)CCNC(=O)Cn2ccc3ccccc3c2=O)C1 (stereo not given),-4%,-14%
COC(=O)[C@@]12CCCCN1[C@H](c1ccc(SC3CCCCC3)cc1)[C@@H]1C(=O)N(C)C(=O)[C@@H]12,-21%,-2%
COc1cccc(CNC(=O)Nc2cc(C(=O)NCc3cccc(F)c3)ccc2N2CCCC2)c1,?,?

From PubChem
